# Assay outcomes: PubChem, National Center for Advancing Translational Sciences (NCATS)
# Cruzain noTriton: cruzain (T. cruzi) inhibition without detergent. purified cruzain, Z-FR-AMC fluorescence, no detergent. AID 1476. 200,000 compounds, 2.3% hits. Potency, µM, for the others: max response, negative = inhibition, hits mostly inhibitors. P25779;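 further: plate controls were enzyme without inhibitor for no effect and buffer without enzyme for full effect; nearly all actives have a fitted effect of over 40% in size; top concentration of the series not given in the record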
# Target sequence (P25779 123-467 limits assumed): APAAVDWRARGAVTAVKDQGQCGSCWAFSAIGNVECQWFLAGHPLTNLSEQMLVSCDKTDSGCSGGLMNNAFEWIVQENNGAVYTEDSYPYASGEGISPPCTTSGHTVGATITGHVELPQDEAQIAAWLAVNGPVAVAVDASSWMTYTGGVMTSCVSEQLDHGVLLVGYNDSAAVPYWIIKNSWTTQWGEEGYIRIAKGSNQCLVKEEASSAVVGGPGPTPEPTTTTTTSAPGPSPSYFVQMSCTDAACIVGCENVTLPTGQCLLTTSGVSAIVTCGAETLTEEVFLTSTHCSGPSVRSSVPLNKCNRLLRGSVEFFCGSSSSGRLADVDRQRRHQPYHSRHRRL
#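 Purified cruzain at 1.5 nM, pre-incubated 15 min with compound at room temperature in 100 mM sodium acetate pH 5.5, 5 mM DTT, 0.00005% Triton X-100. Reaction started with 2 uM Z-FR-AMC; AMC fluorescence increase over 60 s gives rate.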
# NS1 function inh: inhibitors of influenza NS1 protein function; S. cerevisiae slowed by influenza A NS1, growth recovery by OD600; Potency, µM (doses to about 46.1 µM), without a hit: at the top dose activity, positive = more growth; 270,000 compounds, 0.4% hits; AID 2326; active means well fitted rising curve with a large enough effect; inconclusive means small, poorly fitted or top-dose-only effect; inactive means no such curve, though single readings can be large or run the other way; further: nearly all actives have a fitted effect of over 50% in size
#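 In this qHTS, NS1 from influenza A is expressed in budding yeast, where it slows growth. Cells are switched from glucose to 2% galactose medium (pH 6.0, -URA), treated with compound, and growth recovery is read at OD600.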
# Cruzain inh Det: inhibitors of Trypanosoma cruzi cruzain with detergent | purified cruzain, Z-FR-AMC fluorescence, 0.01% Triton | 200,000 compounds, 0.43% hits | Potency, µM, inactives show max response, negative = inhibition, most hits filed as inhibitors;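 further: plate controls were neutral wells for no effect and buffer without enzyme for full effect; nearly all actives have a fitted effect of over 40% in size; top concentration of the series not given in the record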
#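 Detergent-containing run (0.01% Triton X-100) in acetate buffer pH 5.5 with 5 mM DTT: enzyme at 1.5 nM final, 15 min compound preincubation at room temperature, then 2 uM Z-FR-AMC substrate. Activity taken as 60 s fluorescence increase at 360/450 nm.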
# Starred values were filed as active, the others as inactive; ? = inconclusive; / = no result given. Unless noted, the call rests on the fitted dose curve; in most records, active means well fitted curve in the direction sought with a large enough effect; inconclusive means small, poorly fitted or top-dose-only effect, or another doubt; inactive means no such curve, though single readings can be large; an effect the other way counts as inactive or inconclusive. Potency means the concentration at half of the fitted maximal effect. Not all compounds are listed; rates above refer to the full screens.
SMILES,Cruzain noTriton,NS1 function inh,Cruzain inh Det
N#CC1=C(c2ccccc2)N=P(N2CCOCC2)(N2CCOCC2)N=C1N1CCOCC1,/,1.0%,/
CCOC(=O)c1c(C)oc2c1c(/C=N/c1ccccn1)c(O)c1ccccc12,/,25.2%,/
Brc1cnn(-c2nc(N3CCOCC3)nc(N3CCOCC3)n2)c1,/,3.8%,/
CN(C(=O)c1ccccc1C(=O)O)C1CC(C)(C)NC(C)(C)C1,/,8.1%,/
CC(C)c1nnc(NC(=O)c2c(O)c3cccc4c3n(c2=O)CC4)s1,/,-52.5%,/
CCOC(=O)N1CCC(N2C(=O)c3ccc(C(=O)NC4CCCCCC4)cc3C2=O)CC1,/,0.7%,/
C=CCOC(=O)c1sc(N2C(=O)c3oc4ccccc4c(=O)c3C2c2ccco2)nc1C (stereo not drawn),/,2.5%,/
CCn1c(=O)cc(OCC(=O)Nc2ccc(Cl)cn2)c2ccccc21,/,6.7%,/
CCOc1cc2[nH]c(=O)n(CCCCCC(=O)NCc3ccc4c(c3)OCO4)c(=O)c2cc1OCC,/,14.6%,/
CC(=O)c1sc(N2C(=O)c3oc4ccccc4c(=O)c3C2c2ccc(C)o2)nc1C (stereo not drawn),/,3.0%,/
CCOC(=O)C(CC)Sc1nc(-c2ccc(OC)cc2)nc2c1c(=O)n(C)c(=O)n2C (stereo not drawn),/,11.0%,/
CCOC(=O)c1sc(=NC(=O)c2ccc(S(=O)(=O)N3CCOCC3)cc2)n(C)c1C,/,-8.5%,/
COc1ccc(C(=O)CSc2nc3nc(C)cc(C)c3c(=O)[nH]2)cc1OC,/,-8.2%,/
Cn1c(=O)c2c(nc(SCC(=O)NC3CCCCC3)n2C)n(C)c1=O,/,5.2%,/
CCOC(=O)c1c(NC(=O)c2csc(C)c2)sc(C(C)=O)c1C,/,6.1%,/
O=C(CSc1ccc2nnc(-c3ccc(Cl)cc3)n2n1)N1CCN(c2ccccc2)CC1,/,-28.9%,/
Cc1ccc2[nH]c(C)c(CN(C)C3CCN(C)CC3)c(=O)c2c1,/,-2.3%,/
COc1ccc(-c2nc(N3CCOCC3)nc3nn4c(C)c(CCC(=O)O)c(C)nc4c23)cc1,/,8.2%,/
COc1ccc(-n2nc3c(c2NC(=O)c2cc4ccccc4oc2=O)CS(=O)(=O)C3)cc1,/,6.31µM*,/
O=C(CCn1c(=S)[nH]c2ccccc2c1=O)N1CCN(c2ccccn2)CC1,/,-5.1%,/
COc1ccc(C2C3=C(CCCC3=O)Nc3nc4ccccc4n32)cc1OC (stereo not drawn),/,9.8%,/
COc1ccccc1/C=c1\sc2nc(-c3cccs3)nn2c1=O,/,3.1%,/
Cc1nnc(SCCn2c(N3CCN(c4ccccc4)CC3)nc3c2c(=O)n(C)c(=O)n3C)s1,/,-43.9%,/
COc1ccc(OC)c(C2C3=C(CCCC3=O)Nc3nc4ccccc4n32)c1 (stereo not drawn),/,5.7%,/
CCN(CC)CC(=O)Nc1cc(C)c2c(=O)oc3ccccc3c2n1,/,13.3%,/
COCc1cc(=O)[nH]c(Nc2nc(C)c3ccc(C)cc3n2)n1,/,-32.7%,/
Cn1c(=O)c2c(SCC(=O)N3CCC(Cc4ccccc4)CC3)nc(C3CC3)nc2n(C)c1=O,/,-109.4%,/
COc1ccc(-c2ccc(-c3noc(-c4ccncc4)n3)c(OC)n2)cc1,/,26.7%,/
Cc1c(NC(=O)Cn2cnc3c(=O)n(C)c(=O)n(C)c32)cccc1-c1nc2ccccc2o1,/,23.4%,/
Cn1ncc2c1ncn1c(-c3ccccc3Cl)nnc21,/,-1.2%,/
CCOc1ncccc1C(=O)OCc1cc(=O)n2c(n1)sc1ccccc12,/,-6.8%,/
CSc1ncnc2nc[nH]c12,/,-23.6%,/
CN1CCN(C(=O)c2cc(-c3ccc(O)cc3)on2)CC1,/,18.7%,/
Cn1c(C(=O)N2CCN(c3ccc(F)cc3)CC2)cc2c(=O)n(C)c3ccccc3c21,/,-49.9%,/
Cc1nnc2sc(-c3ccc(NC(=O)c4ccc(-c5ccc(Br)cc5)o4)cc3)nn12,/,-3.0%,/
Cc1cc(C)n(CCc2nc3c4ccccc4n(CC(=O)Nc4ccc(Cl)cc4F)c(=O)n3n2)n1,/,29.4%,/

# A draw from above in order of number of heavy atoms, ascending.
SMILES,Cruzain noTriton,NS1 function inh,Cruzain inh Det
CSc1ncnc2nc[nH]c12,/,-23.6%,/
Cn1ncc2c1ncn1c(-c3ccccc3Cl)nnc21,/,-1.2%,/
CN1CCN(C(=O)c2cc(-c3ccc(O)cc3)on2)CC1,/,18.7%,/
COc1ccccc1/C=c1\sc2nc(-c3cccs3)nn2c1=O,/,3.1%,/
CCN(CC)CC(=O)Nc1cc(C)c2c(=O)oc3ccccc3c2n1,/,13.3%,/
CCOc1ncccc1C(=O)OCc1cc(=O)n2c(n1)sc1ccccc12,/,-6.8%,/
O=C(CCn1c(=S)[nH]c2ccccc2c1=O)N1CCN(c2ccccn2)CC1,/,-5.1%,/
Cc1nnc2sc(-c3ccc(NC(=O)c4ccc(-c5ccc(Br)cc5)o4)cc3)nn12,/,-3.0%,/
Cn1c(C(=O)N2CCN(c3ccc(F)cc3)CC2)cc2c(=O)n(C)c3ccccc3c21,/,-49.9%,/
COc1ccc(-n2nc3c(c2NC(=O)c2cc4ccccc4oc2=O)CS(=O)(=O)C3)cc1,/,6.31µM*,/
Cc1c(NC(=O)Cn2cnc3c(=O)n(C)c(=O)n(C)c32)cccc1-c1nc2ccccc2o1,/,23.4%,/
COc1ccc(-c2nc(N3CCOCC3)nc3nn4c(C)c(CCC(=O)O)c(C)nc4c23)cc1,/,8.2%,/
Cc1cc(C)n(CCc2nc3c4ccccc4n(CC(=O)Nc4ccc(Cl)cc4F)c(=O)n3n2)n1,/,29.4%,/

# Further entries:
SMILES,Cruzain noTriton,NS1 function inh,Cruzain inh Det
C=CCn1c(NC(=O)c2ccccc2)c(C#N)c2nc3ccccc3nc21,/,-52.0%,/
CC(=O)c1c(C(C)=O)c(C)n(CCCCn2c(C)c(C(C)=O)c(C(C)=O)c2C)c1C,/,3.1%,/
CCOC(=O)c1cnc(SCC(=O)Nc2ccccc2N2CCOCC2)nc1N,/,-15.8%,/
COc1ccc(C2c3c(oc4ccc(F)cc4c3=O)C(=O)N2CCN2CCOCC2)cc1OC (stereo not drawn),/,16.4%,/
CC(NC(=O)c1cc(-c2ccc(O)cc2)on1)c1ccccc1 (stereo not drawn),/,-147.6%,/
Cc1cccn2c(=O)c3cc(C(=O)Nc4ccc(N(C)C)cc4)n(C)c3nc12,/,-6.4%,/
COc1ccc(-n2c(=O)c3c4c(sc3n3c(C)nnc23)COC(C(C)C)C4)cc1 (stereo not drawn),/,27.2%,/
CCOC(=O)c1nn(-c2ccc(OC)cc2)c(=O)c2c(NC(=O)c3ccco3)scc12,/,-1.9%,/
CC1=C(C#N)c2nc(N)c(C#N)c(C)c2/C1=C\c1ccccc1,/,-25.2%,/
Cc1ccc2c(c1)N(CC(=O)NCC1COc3ccccc3O1)C(=O)CO2 (stereo not drawn),/,-3.3%,/
Cn1c(C(=O)N2CCc3ccccc32)cc2c(=O)n3ccccc3nc21,/,-3.7%,/
Cn1c(=O)c2c(SCc3ccccn3)nc(-c3ccccc3)nc2n(C)c1=O,/,-1.2%,/
c1cc(-c2nc3cc(Oc4ccc5oc(-c6ccncc6)nc5c4)ccc3o2)ccn1,/,-1.3%,/
Cc1cc(C)c(C(=O)CN2C(=O)CCC2=O)cc1C,/,-4.2%,/
O=C(O)C1CCCN1S(=O)(=O)c1cccc2cccnc12 (stereo not drawn),/,5.2%,/
O=C(Cc1c(C(=O)O)[nH]c2ccccc12)NC1CCN(Cc2ccccc2)CC1,/,0.2%,/
CCOc1ccc(NC(=O)c2oc3ccccc3c2NC(=O)C(C)C)cc1,/,-6.3%,/
Cc1nn(C(=O)CCCC(=O)n2nc(C)c(Cl)c2C)c(C)c1Cl,/,5.0%,/
COCCCNC(CC(=O)Nc1ccccc1C(=O)OC)C(=O)O (stereo not drawn),/,8.4%,/
CC1CCN(Cc2nc3c(c(=O)n(C)c(=O)n3C)n2CCN2CCOCC2)CC1,/,-7.5%,/
Cc1ccc(NC(=O)c2cnc3scc(C)n3c2=O)c(C)c1,/,-8.1%,/
COc1ccc(CNC(=O)c2cc(-c3cccc(OC)c3)on2)cc1,/,-10.2%,/
CCCCCNC(CC(=O)Nc1ccc(OC)cc1)C(=O)O (stereo not drawn),/,6.9%,/
COc1cccc(OCC(=O)Nc2c(C(=O)Nc3ccc(OC)cc3OC)oc3ccccc23)c1,/,9.7%,/
CC(C)CC1N=C2c3ccccc3N=C(SCc3cc(=O)n4ccccc4n3)N2C1=O (stereo not drawn),/,?,/
CCOC(=O)c1cn2c3c(c(F)c(F)c(F)c3c1=O)SC(N1CCCC1)=N2,/,4.0%,/
Cc1nc2cc(-c3cccc(F)c3)nn2c(N2CCOCC2)c1C,/,-3.2%,/
Cn1c(=O)n(CCc2ccccc2)c(=O)c2c1nc1n2CCCN1c1ccc(F)cc1,/,14.8%,/
CCOC(=O)c1cnc(Nc2nc3ccccc3o2)nc1CN1CCN(c2ccccc2)CC1,/,-1.1%,/
Cc1nnc2ccc(N3CCC(C(N)=O)(N4CCCCC4)CC3)nn12,/,21.3%,/
CN(C)CCCN1C(=O)C(=O)/C(=C(/O)c2ccc3c(c2)OCO3)C1c1ccco1 (stereo not drawn),/,0.3%,/
CC1CCc2c(sc3nc(SCc4nc(-c5ccccc5)no4)n(C)c(=O)c23)C1 (stereo not drawn),/,-45.0%,/
Cc1c(C(=O)OCc2cc(=O)n3cc(Br)ccc3n2)oc2ccccc12,/,2.1%,/
COc1ccc2[nH]c(C)c(CN3CCCC(C)C3)c(=O)c2c1 (stereo not drawn),/,2.8%,/
CCNC(=O)c1cc2c(=O)n3cccc(C)c3nc2n1C,/,6.8%,/
Cc1ccc2nc(-c3cccc(-c4nc5ccc(C)cc5o4)n3)oc2c1,/,2.0%,/
CCCn1c(C)nc2c(c1=O)c1nc3ccccc3nc1n2-c1ccc2c(c1)OCCO2,/,19.3%,/
COc1ccccc1CNC(=O)c1cc2c(=O)n(C)c3ccccc3c2n1C,/,5.7%,/
Cc1ncc(CO)c2c1Oc1nc(-c3ccccc3)nc(SCC(=O)N(C)c3ccccc3)c1C2,/,?,/
O=C(CSc1nc2sc3c(c2c(=O)n1Cc1ccco1)CCC3)N1CCc2ccccc21,/,4.2%,/
O=C(CCn1c(=S)[nH]c2cc3c(cc2c1=O)OCO3)NCCN1CCCC1,/,?,/
Cc1ccc(C)c(N2CCN(c3cc(C)nc4nnnn34)CC2)c1,/,11.3%,/
COC(=O)c1cccc(Oc2nc(N3CCOCC3)nc(N3CCOCC3)n2)c1,/,12.4%,/
CCOc1ccccc1C(=O)Nc1ccc(-c2nnc(-c3ccc(C)cc3)o2)cc1,/,-1.4%,/
CCCN1Cc2cccc(C(=O)Nc3ccc(N4CCN(CC)CC4)cc3)c2C1=O,/,13.1%,/
Clc1ccc(Br)cc1-c1nc(-c2cccnc2)no1,/,1.2%,/
OC[C@H]1O[C@@H](OC[C@H]2O[C@@H](O)[C@H](O)[C@@H](O)[C@@H]2O)[C@H](O)[C@@H](O)[C@@H]1O,1.3%,/,8.8%
CC(C)(C)c1ccc(C(=O)N2CCC(=O)N([C@H](COCc3ccc(Cl)cc3)Cc3ccccc3)CC2)cc1,8.8%,/,-0.1%
COc1cc2oc(=O)cc(-c3ccc(-c4cccc(N)c4)cc3)c2c(OC)c1OC,?,/,-0.5%
O=C(O)/C=C/c1ccc(/C=C/C(=O)O)cc1,-3.8%,/,2.2%
Cc1cc(-c2ccc(N=Nc3cc(S(=O)(=O)O)c4ccccc4c3N)c(C)c2)ccc1N=Nc1cc(S(=O)(=O)O)c2ccccc2c1N,?,/,7.94µM*
CCCCCCCCCCCOC(=O)c1ccccc1C(=O)OCCCCCCCCCCC,-4.9%,/,-1.3%
O=[N+]([O-])c1cccc(I)c1,-3.1%,/,1.1%
CC(C)(C)c1ccc(OCC2CO2)cc1 (stereo not drawn),-0.8%,/,0.0%
